HCMV UL50-53 inh – disrupts HCMV UL50-UL53 complex binding; inhibition, % (concentration not given with the values); HTRF UL50-UL53 interaction, normalized percent inhibition; actives 0.15% (n = 190,000); AID 1918969;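 active = both replicates at 50% or more, plus weaker picks with an unusually low signal ratio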;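 note: stock transfer was 100 nL into about 20 µL; 0% = negative control wells and 100% = wells with untagged competitor protein; inactives centre near -12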
Numbers without * were called inactive; & = joins results of further samples. These rows are one share of the data. The share of hits here may be higher or lower than overall.

Start of the data: the first 16 records, ahead of the listing:
| SMILES | HCMV UL50-53 inh |
| --- | --- |
| O=C(c1ccc(F)cc1)C1CCN(CCCCc2ccccc2)CC1 | -3 |
| CC(C)C(=O)Nc1sc2c(c1C#N)CCC2 | -3 |
| O=C(CC1OC(=O)c2ccccc21)c1ccc(Cl)cc1 (centres undefined) | 6 |
| CC(=O)Nc1cc2ccccc2cc1NC(C)=O | -11 |
| CCCOC1(NC(=O)c2ccc(C)cc2)C(C)=CC(=O)C=C1C | -3 |
| CCCCNS(=O)(=O)c1ccccc1 | -16 |
| COc1ccc(/C=C2/SC(=O)N(CCC(=O)O)C2=O)cc1 | -41 |
| C=CCc1ccccc1OCC(O)Cn1cnc2ccccc21 (centres undefined) | -5 |
| CCOc1ccc(Cl)cc1S(=O)(=O)N1CCOCC1 | 2 |
| COC(=O)CC1SCCNC1=O (centres undefined) | -4 |
| Cc1cn(CC(=O)Nc2cnn(C)n2)nc1-c1cccs1 | -7 |
| COc1ccc(/C=C(\C#N)S(=O)(=O)c2ccc(C)cc2)cc1Cl | 1 |
| Cc1ccc(S(=O)(=O)N2C=Cc3ccccc3C2C#N)cc1 (centres undefined) | -51 |
| Cc1cc(C)c2c(=O)[nH]c(SCC(=O)N(C)C)nc2n1 | -8 |
| CC(=O)Nc1sc2c(c1C(c1ccccn1)N1CCN(C)CC1)CCCC2 (centres undefined) | 7&-4 |
| Cc1cccc(NC(=O)CCCOc2ccc(Cl)cc2Cl)n1 | -6 |

The whole of this part, previewed entries included:
| SMILES | HCMV UL50-53 inh |
| --- | --- |
| O=C(c1ccc(F)cc1)C1CCN(CCCCc2ccccc2)CC1 | -3 |
| CC(C)C(=O)Nc1sc2c(c1C#N)CCC2 | -3 |
| O=C(CC1OC(=O)c2ccccc21)c1ccc(Cl)cc1 (centres undefined) | 6 |
| CC(=O)Nc1cc2ccccc2cc1NC(C)=O | -11 |
| CCCOC1(NC(=O)c2ccc(C)cc2)C(C)=CC(=O)C=C1C | -3 |
| CCCCNS(=O)(=O)c1ccccc1 | -16 |
| COc1ccc(/C=C2/SC(=O)N(CCC(=O)O)C2=O)cc1 | -41 |
| C=CCc1ccccc1OCC(O)Cn1cnc2ccccc21 (centres undefined) | -5 |
| CCOc1ccc(Cl)cc1S(=O)(=O)N1CCOCC1 | 2 |
| COC(=O)CC1SCCNC1=O (centres undefined) | -4 |
| Cc1cn(CC(=O)Nc2cnn(C)n2)nc1-c1cccs1 | -7 |
| COc1ccc(/C=C(\C#N)S(=O)(=O)c2ccc(C)cc2)cc1Cl | 1 |
| Cc1ccc(S(=O)(=O)N2C=Cc3ccccc3C2C#N)cc1 (centres undefined) | -51 |
| Cc1cc(C)c2c(=O)[nH]c(SCC(=O)N(C)C)nc2n1 | -8 |
| CC(=O)Nc1sc2c(c1C(c1ccccn1)N1CCN(C)CC1)CCCC2 (centres undefined) | 7&-4 |
| Cc1cccc(NC(=O)CCCOc2ccc(Cl)cc2Cl)n1 | -6 |
| CCCn1cc(-c2ccnc(NCc3cn4cccc(C)c4n3)n2)c(C)n1 | 8 |
| CNC(=O)Nc1ccc(-c2nc(N3CC4CCC(C3)O4)c3cnn(C4CCC5(CC4)OCCO5)c3n2)cc1 | -9&-5&-10&-8&-3 |
| Cc1csc(CNc2nccc(-c3cnn(-c4ccccc4)c3)n2)n1 | 46&46 |
| Cn1cc(C2=C(c3cn(CCCN)c4ccccc34)C(=O)NC2=O)c2ccccc21 | -44&-44 |
| COC(=O)C(Cc1ccccc1)NC(=O)C(N)CC(=O)O (centres undefined) | 7 |
| CCN(CC)C(=O)C1(c2ccccc2)CC1CN (centres undefined) | -75 |
| O=C(Nc1c[nH]c2ccccc12)c1cc(-c2ccc(F)cc2)n[nH]1 | -26&-26 |
| c1ccc(C(CCn2ccnc2)NC2CCCCCC2)cc1 (centres undefined) | -27 |
| CC(NC(=O)c1ccccc1)c1nc2ccccc2[nH]1 (centres undefined) | -10 |
| O=C(C1=COCCO1)N1CCCc2ccccc21 | -1 |
| CCN1CCN(Cc2ccc(NC(=O)c3ccc(C)c(NC(=O)c4cc(-c5ccc(Br)cc5)n[nH]4)c3)cc2C(F)(F)F)CC1 | 1 |
| C/C=C\C(=O)NCc1ccc2[nH]c(C)cc2c1 | -11 |
| Cc1oc(=O)c(NC(=O)c2ccccc2)cc1C(=O)c1ccccc1 | -11 |
| CCCOC(=O)CSc1nc(C)cc(C)c1C#N | 3 |
| O=C(CN1C(=O)CSCC1=O)Nc1ccccc1 | -4 |
| Cn1c(=NC(=O)c2cc(=O)c3ccccc3o2)sc2cc(Br)ccc21 | -18 |
| COc1cc(C)nc(N(CCO)CCO)n1 | -21 |
| CSc1nnc(NC(=O)C2CCCCC2)s1 | -13 |
| CCC1(CC)CC1C(=O)N1CCC(n2cc(C3(O)CCCC3)nn2)CC1 (centres undefined) | -27 |
| CCCSC1=C(C#N)C(c2ccco2)C(C(=O)Nc2ccccc2OC)=C(C)N1 (centres undefined) | -19 |
| O=C1COc2ccc(NC(=O)Oc3ccccc3)cc2N1 | 3 |
| CNC(=C[N+](=O)[O-])NCCSCc1csc(CN(C)C)n1 | -4&-52 |
| CC(=O)Nc1cccc(-c2nn(CC(=O)Nc3cnn(C)n3)c3ccccc23)c1 | 38&38 |
| CC1(C)CC(=O)C=C(NCCO)C1 | -12 |
| Brc1ccc(-c2nnc3sc(CNC4CCCC4)cn23)cc1 | 12&14 |
| COc1ccc(/C=C/C(=O)N2CCOCC2)cc1 | -48 |
| O=C(O)c1cc(Oc2ccc([N+](=O)[O-])cc2)cc(Oc2ccc([N+](=O)[O-])cc2)c1 | -92 |
| CCC(=O)Oc1cccc(N2C(=O)C3C4C=CC(C4)C3C2=O)c1 (centres undefined) | -7 |
| O=S(=O)(/C=C/c1ccccc1)N1CCc2ccccc2C1 | 5 |
| Cc1ccc2c(-c3cc4c(n(CC5CC5)c3=O)CCN(C(=O)c3ccc5c(c3)OCO5)C4)cccc2n1 | -12 |
| CN(C)c1ccc(N=Nc2ccccc2C(=O)O)cc1 | -114 |
| Cc1nc2sc(C(c3cccc(F)c3)N3CCC(O)CC3)c(O)n2n1 (centres undefined) | -18 |
| O=C(NCc1ccccc1)c1cc(C(=O)C2CCCCC2)c[nH]1 | 2 |
| Cc1ccc(Sc2cncc3sc(C(N)=O)cc23)cc1 | -2&-9 |
| C=C1CC[C@H]2[C@@](C)(CCC(O)[C@@]2(C)CO)C1CC=C1C(=O)OCC1O (some centres undefined) | 17 |
| CCC(=O)Nc1nc(-c2ccc3c(c2)OCCO3)cs1 | -8 |
| Oc1c(Br)cc(Br)c2cccnc12 | -43 |
| COc1ccc2cc(S(=O)(=O)c3ccccc3)c(=O)oc2c1 | -16 |
| O=C(NCc1nnc(SC/C=C/c2ccccc2)o1)c1cccs1 | -6 |
| COc1cc(F)ccc1C(=O)N1CCc2[nH]nc(Cc3ccccc3)c2C1 | 0&0 |
| CCNC(=O)CC1Sc2ccc(C(F)(F)F)cc2NC1=O (centres undefined) | -2 |
| O=C(c1ccccc1)c1ccc2nc(NC(=O)c3csc(C4CCN(c5ncnc6ccsc56)CC4)n3)[nH]c2c1 | -6 |
| O=C(CSc1cn(CCNC(=O)c2ccccc2)c2ccccc12)NCc1ccco1 | -8 |
| O=C(O)CCCCCCC1C(=O)N(Cc2ccccc2)C(=O)N1NCC(O)C1CCCCC1 (centres undefined) | -15&-15 |

(continued)
| SMILES | HCMV UL50-53 inh |
| --- | --- |
| Cc1cccc(C)c1OCC(=O)NC(Cc1ccccc1)C(O)CC(Cc1ccccc1)NC(=O)C(C(C)C)N1CCCNC1=O (centres undefined) | -5 |
| COc1ccc(C(O)=C2C(=O)c3ccccc3C2=O)cc1 | -25&8 |
| CCSc1nnc(NC(=O)CC)s1 | -14 |
| O=C(Cc1noc2ccccc12)NCCOc1cccnc1 | -15&-15 |
| Cl/C(=C\n1cncn1)c1ccc(Cl)cc1Cl | -8 |
| CN(C)S(=O)(=O)c1ccc2c(c1)/C(=C\CCN1CCNCC1)c1ccccc1S2 | -28 |
| CCC(CC)(CC(=O)Nc1cccc(/C=C/c2nc(C3CCC3)cs2)c1)C(=O)O | -53 |
| CC1(C)CN(c2cccc(C(=O)c3cn(-c4ccc(C(F)(F)F)cc4)nn3)c2)C1=O | 6 |
| O=C1CSC(c2ccccc2)N1c1ccccc1 (centres undefined) | -12 |
| Cc1csc(-c2cc(C(=O)N3CCC(N(C)C)C3)cc(S(=O)(=O)N3CCOCC3)c2)c1 (centres undefined) | -1 |
| NC1=NC(=O)C(CC(=O)NCc2ccccc2)S1 (centres undefined) | 1 |
| CS(=O)(=O)/N=C(\N)c1ccccc1 | 6 |
| COc1ccc2c(c1)c(C1=C(c3c[nH]c4ccccc34)C(=O)NC1=O)cn2CCCN(C)C | -116&-173&-59&-59 |
| O=C(Nc1ccc(C(F)(F)F)cn1)N1CCN(c2ncccc2C(F)(F)F)CC1 | -1 |
| Cn1ncc(NC(=O)Cn2ccc(-c3ccccc3C(F)(F)F)n2)n1 | -5 |
| Cc1ccccc1C1CC(=O)NC(SCC(=O)Nc2ccccc2)=C1C#N (centres undefined) | -15 |
| COc1ccccc1C(=O)N1CCN2C(=O)[C@H](CCCCN)NC(=O)[C@H]2C1 | -7 |
| O=C(Nc1nc2c(F)cccc2s1)c1cccs1 | -5 |
| CN(C)c1ccc(/C=N/c2nnc(NC(=O)c3ccccc3Br)s2)cc1 | -22 |
| CC12CCC(C(=O)N3CCCc4ccccc43)(CC1=O)C2(C)C (centres undefined) | -10 |
| Cc1nn(C)c(C)c1-c1ccnc(NCCc2nc(-c3ccccn3)no2)n1 | -14 |
| Cc1nsc(NC(=O)NC2CCc3ccccc3C2)n1 (centres undefined) | -19&-19 |
| CCOCC(O)COc1ccc(NC(=O)CC[S+](C)C)cc1 (centres undefined) | 8&-8 |
| O=C(COc1ccc(Br)cc1)NCc1ccco1 | -12 |
| C[C@H]1O[C@@H](O[C@H]2[C@@H](O)C[C@H](O[C@H]3[C@@H](O)C[C@H](O[C@H]4CC[C@@]5(C)[C@H](CC[C@@H]6[C@@H]5C[C@@H](O)[C@]5(C)[C@@H](C7=CC(=O)OC7)CC[C@]65O)C4)O[C@@H]3C)O[C@@H]2C)C[C@H](O)[C@@H]1O | -26 |
| COc1ccc2nc(NC(=O)c3cccs3)sc2c1 | 1 |
| COc1cc(O)sc1C=Nc1ccc(Cl)cc1 | -15 |
| N#C/C(=C(/O)C(F)(F)F)c1nc2ccccc2s1 | -19 |
| C=CCn1c2ccccc2c2nc3ccccc3nc21 | 1 |
| COc1cc2c(cc1Cc1cccc(Cl)c1F)c(=O)c(C(=O)O)cn2C(CO)C(C)C (centres undefined) | -2 |
| CCOC(=O)c1cc2c(NC(C)=O)c(C(=O)OCC)sc2nc1C(F)(F)F | 0 |
| O=C(Nc1nc2ccc3ccccc3c2s1)c1ccccc1Cl | -13 |
| Cc1cccc(OCC(O)CN2C(C)(C)CC(O)CC2(C)C)c1 (centres undefined) | -4 |
| O=C(O)Cc1nn(Cc2ccc(Br)cc2F)c(=O)c2ccccc12 | 3 |
| Nc1nc2ccccc2cc1-c1cccs1 | -21 |
| CCOC(=O)C(CC)Sc1nnc(NC(=O)Cc2cccs2)s1 (centres undefined) | -12 |
| CCn1cc(SCC(=O)Nc2nccs2)c2ccccc21 | -7 |
| COc1ccc(S(=O)(=O)N(C(C)=O)c2ccccc2C=Cc2cc[n+]([O-])cc2)cc1 | -55 |
| COc1cc(C=CC(=O)C=C(O)C=Cc2ccc(O)c(OC)c2)ccc1O | -14 |
| CC1=C(C(=O)OC2CCCCC2)C(c2ccc([N+](=O)[O-])cc2)C2=C(CC(C)(C)CC2=O)N1 (centres undefined) | -4 |
| C=C1C(=O)O[C@@H]2[C@H]3O[C@]3(C)CC/C=C(\C)CC[C@@H]12 | 0&-19 |
| C=CCNC(=O)c1cc([N+](=O)[O-])cc2c(=O)[nH]c(Nc3ccc(Cl)c(Cl)c3)nc12 | -3 |
| CCOC(=O)c1[nH]c(C)c(C(=O)N2CCOCC2)c1C | 3 |
| O=C(CCn1c(=O)oc2ccccc21)Nc1ccccc1 | -7 |
| Cc1c(C(=O)Nc2nc3ccc(Br)cc3s2)sc2nc[nH]c(=O)c12 | -4 |
| O=C(CSc1nc2ccccc2s1)NCCCN1CCOCC1 | 1 |
| CCCCC[C@H]1/C=C/[C@@H]2[C@@H](C/C=C\CCCC(=O)O1)[C@@H](O)C[C@H]2O | 3&3 |
| CCOC(=O)c1ccc2nc(NC(=O)C(C)C)sc2c1 | -13 |
| COC(=O)c1ccc(CSc2nc3c(cnn3-c3ccc(C)cc3)c(=O)[nH]2)o1 | 6 |
| O=C(Nc1ccncc1NC(=O)c1ccccc1)c1ccccc1 | -1 |
| O=C(c1ccc(-n2nc(C(F)(F)F)c3c2CCCC3)cc1)N1CCOCC1 | -9 |
| CCCCC/C=C\C/C=C\CCCCCCCC(=O)OC(CO)CO | -5&-5 |
| CCC(C)c1ccccc1OCC(O)CN1CCN(Cc2ccc3c(c2)OCO3)CC1 (centres undefined) | 4 |
| NC(=O)c1oc2ccccc2c1NC(=O)c1cccs1 | -9 |
| CCN1C(=CC(C)=O)Sc2ccc(OC)cc21 | 6 |
| N#C/C(=C\Nc1cccc(Cl)c1)c1nc(-c2ccc3c(c2)OCO3)cs1 | -8 |
| CCCCCCCC/C=C\CCCCCC(=O)OC | -5&-5 |
| CCCCC[C@H](O)/C=C/[C@H]1[C@H](O)CC(=O)[C@@H]1C/C=C\CCCC(=O)NC(CO)CO | -15&-15 |
| CC(C)CNc1ncnc2nc[nH]c12 | -7 |
| CCc1ccc(C2C(C#N)=C(N)SC(N)=C2C#N)cc1 | -13 |

(further entries)
| SMILES | HCMV UL50-53 inh |
| --- | --- |
| CC[C@H](C)[C@H](N)C(=O)N1CCC(Cn2cc(C3CCCCC3)nn2)CC1 | -2 |
| CN(C)c1ccc(C(=O)O)cc1 | -16 |
| OC(COc1ccccc1)CN1CCN(Cc2ccc(Cl)cc2)CC1 (centres undefined) | 4 |
| CCN1CCN(Cc2ccc(NC(=O)c3cc(NC(=O)N4CCNC4=O)cc(OC)c3)cc2C(F)(F)F)CC1 | -14 |
| CC(=O)Nc1ccc(S(=O)(=O)N2CCN=C2SCc2c(F)cccc2Cl)cc1 | -6 |
| CC(=O)NCc1nc2ccccc2n1Cc1ccccc1C | -16 |
